Screening data (PubChem BioAssay)
KCNQ2 inh – KCNQ2 channel blockers in CHO-K1 cells – cell-based, FluxOR thallium flux, B-score, primary screen (AID 2156); O88943; 20 min; stronger effect = lower value; only compounds with negative scores are shown here; some inactives read as strong as hits; B-score at 10 µM; actives 1.1% (n = 310,000);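 active = fluorescence ratio B-score at most minus 3 library SDs, with starting brightness B-score within 2 library SDs, cut at about -5.5 in these data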
Target sequence (O88943 whole entry, looked up): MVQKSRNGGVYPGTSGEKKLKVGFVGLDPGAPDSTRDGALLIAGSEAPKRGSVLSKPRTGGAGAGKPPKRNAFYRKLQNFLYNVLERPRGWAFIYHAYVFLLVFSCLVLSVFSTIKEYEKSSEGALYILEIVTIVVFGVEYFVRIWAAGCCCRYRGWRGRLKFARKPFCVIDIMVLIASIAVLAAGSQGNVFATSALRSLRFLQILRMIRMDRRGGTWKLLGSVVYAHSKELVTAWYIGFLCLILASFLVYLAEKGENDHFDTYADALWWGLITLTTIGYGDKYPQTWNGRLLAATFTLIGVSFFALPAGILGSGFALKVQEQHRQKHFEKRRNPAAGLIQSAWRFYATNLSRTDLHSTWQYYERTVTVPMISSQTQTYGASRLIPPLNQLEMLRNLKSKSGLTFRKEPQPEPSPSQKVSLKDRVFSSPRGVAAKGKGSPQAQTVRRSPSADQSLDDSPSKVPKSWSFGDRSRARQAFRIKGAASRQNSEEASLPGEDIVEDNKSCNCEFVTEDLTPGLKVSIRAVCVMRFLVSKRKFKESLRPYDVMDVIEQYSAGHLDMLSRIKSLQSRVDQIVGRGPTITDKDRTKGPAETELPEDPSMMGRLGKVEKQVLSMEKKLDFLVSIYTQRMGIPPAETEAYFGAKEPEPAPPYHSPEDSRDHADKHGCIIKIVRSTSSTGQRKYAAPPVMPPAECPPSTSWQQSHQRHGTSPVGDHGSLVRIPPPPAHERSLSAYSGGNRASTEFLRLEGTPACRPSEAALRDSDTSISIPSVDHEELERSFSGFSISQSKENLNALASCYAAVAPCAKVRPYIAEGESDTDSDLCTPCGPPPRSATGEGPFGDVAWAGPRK
KCNQ2 inh baseline – further read-out of KCNQ2 inh, marked with its call; B-score; measured here: initial fluorescence intensity artifact check;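 brightness before thallium and not channel activity; 0 = typical well and far values either way flag optical interference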
* hit, by the source's call; i = inactive. Not all compounds are listed (hit frequency here may not be typical).

KCNQ2 inh,KCNQ2 inh baseline,Structure
i,-0.91,CC(=O)c1cccc(NC(=O)/C(=C\c2ccco2)NC(=O)c2ccco2)c1
i,1.7,COc1ccc(S(=O)(=O)N(C)CC(=O)Nc2ccccc2C(F)(F)F)cc1
i,0.99,O=C(CCCOc1cccc(Br)c1)NC1CCC(O)CC1 (stereo unspecified)
i,0.83,COC(=O)C1=C(C)N(CCc2ccc(OC)c(OC)c2)C(=O)/C1=C\N(C)C
i,0.12,Cc1cccc(N(C(=O)CCC(=O)Nc2ccccn2)C(C(=O)NC(C)C)c2ccc(F)cc2)c1 (stereo unspecified)
i,-0.59,CC1CCCC(C)N1CC(O)COCC1COc2ccccc2O1 (stereo unspecified)
i,1.6,Cc1ccc(C)c(NC(=O)COc2coc(CN3CCc4ccccc43)cc2=O)c1
i,2.2,Cc1ccc2nc(N(CCN3CCOCC3)C(=O)CCS(=O)(=O)c3ccccc3)sc2c1
i,0.39,CCC(c1nnnn1Cc1ccc(F)cc1)N1CCN(C)CC1 (stereo unspecified)
i,-0.8,O=C(NCc1ccc(F)cc1)c1ccc(CS(=O)(=O)Cc2ccc(F)cc2)o1
i,1.8,O=c1c(Cl)c(N2CCN(S(=O)(=O)c3ccccc3)CC2)cnn1-c1ccccc1
i,-0.21,O=C(NC(=O)c1c(Cl)cccc1Cl)Nc1ccc(Oc2cccnc2)nc1
i,-1.4,OC1(Cc2ccn[nH]2)CCCCC1
i,0.84,COc1ccc(Cl)cc1C(=O)NCc1ccco1
i,1.7,COc1cccc(OC)c1C(=O)Nc1cc(C)on1
i,-1.4,O=C(c1cn(-c2ccccc2)nc1-c1cccs1)N1CCN(c2ccccc2)CC1
i,0.07,Cc1ccc(-c2csc3nc(C(C)C)oc(=O)c23)c(C)c1
i,0.01,CCOC(=O)Nc1ccc2c(c1)N(C(=O)CN(C)C)c1ccccc1CC2
i,0.01,COc1ccc(CCC(=O)NNC(=O)c2cc(Cl)ccc2OC)cc1OC
i,-0.5,CN(Cc1ccccc1)S(=O)(=O)c1ccc(Cl)c(C(=O)NCc2ccc3c(c2)OCO3)c1
i,-0.94,O=C1Nc2ccccc2/C1=N\c1sc2c(c1C(=O)Nc1ccccc1)CCCC2
i,-0.05,CCN1C(=O)c2ccccc2Sc2ccc(C(=O)NC(C)C)cc21
i,0.12,Cn1c(CCC(=O)Nc2cc(S(C)(=O)=O)ccc2Cl)nc2cc(S(=O)(=O)N3CCOCC3)ccc21
i,-0.13,COc1ccc(C(=O)NC(=S)NNC(=O)c2ccccc2C)cc1
i,0.87,Cn1c(CCN2CCOCC2)nc2cc(NS(=O)(=O)c3ccccc3)ccc21
i,2,CCc1sc(C(=O)Nc2cc(Cl)ccc2N2CCCCC2)cc1C
i,2.5,COc1ccccc1CCNC(=O)c1ccc2nc[nH]c2c1
i,-0.41,O=C(CN1CCN(S(=O)(=O)c2ccc(F)cc2)CC1)Nc1cccc(C(F)(F)F)c1
i,-0.04,COc1ccc(Cl)cc1Nc1nc(NCCO)nc(N2CCCC2)n1
i,0.41,CS(=O)(=O)Nc1ccc(C(=O)Nc2ccc(S(=O)(=O)Nc3nccs3)cc2)cc1
i,0.31,C/C(CC(=O)Nc1cc(Cl)ccc1Cl)=N\NC(N)=S
i,-0.01,O=C(NC(Cc1c[nH]c2ccccc12)C(=O)O)/C(=C\c1ccc2c(c1)OCO2)NC(=O)c1ccccc1 (stereo unspecified)
i,1,COc1ccc2nc(NC(=O)CCn3cccc3)sc2c1
i,0.03,CC(=O)N1CCOc2ccc(S(=O)(=O)N3CCC(C(=O)NCc4ccccc4)CC3)cc21
i,-1.5,COC(=O)c1ccccc1S(=O)(=O)N1CCC(C(=O)OC(C)C(=O)NC(N)=O)CC1 (stereo unspecified)
i,-0.33,COC(=O)c1ccccc1S(=O)(=O)N(Cc1cc2ccc(OC)cc2[nH]c1=O)CC1CCCO1 (stereo unspecified)
i,-0.99,O=[N+]([O-])c1ccccc1-c1ccc(/C=N/n2cnnc2)o1
i,-2.5,CN(C1CCCCC1)S(=O)(=O)c1ccc(-c2ccccn2)s1
i,-0.02,CC1CCN(C(=O)CSCc2ccc(Cl)cc2)CC1
i,1.6,CN(C)c1ccc(/C=C/c2ccc3ccccc3n2)cc1

Four entries from above, field by field.
COC(=O)c1ccccc1S(=O)(=O)N1CCC(C(=O)OC(C)C(=O)NC(N)=O)CC1 (stereo unspecified)
  KCNQ2 inh: i; KCNQ2 inh baseline: -1.5

COC(=O)c1ccccc1S(=O)(=O)N(Cc1cc2ccc(OC)cc2[nH]c1=O)CC1CCCO1 (stereo unspecified)
  KCNQ2 inh: i; KCNQ2 inh baseline: -0.33

COc1ccc2nc(NC(=O)CCn3cccc3)sc2c1
  KCNQ2 inh: i; KCNQ2 inh baseline: 1

COc1ccc(Cl)cc1C(=O)NCc1ccco1
  KCNQ2 inh: i; KCNQ2 inh baseline: 0.84

(more compounds)
KCNQ2 inh,KCNQ2 inh baseline,Structure
i,-0.82,O=C(NCC1CCCN1S(=O)(=O)c1cccs1)c1ccc(Cl)cc1 (stereo unspecified)
i,-2.2,CN(CC(=O)N1CCN(c2ccccn2)CC1)S(=O)(=O)c1ccc2ccccc2c1
i,0.34,CCOC(=O)C1(Cc2cccc(OC)c2)CCN(CC2CC=CCC2)CC1 (stereo unspecified)
i,0.57,COC(=O)C[C@H]1c2ccccc2S(=O)(=O)N1Cc1ccc(OC)cc1
i,-0.91,CC1=C(C(=O)OCc2ccccc2)C(c2ccccc2)NC(=O)N1CCCCCC(=O)O (stereo unspecified)
i,-0.83,CCCn1c(=O)c(Br)cn(-c2ccccc2C)c1=O
i,0.63,CCOC(=O)C1=C(C)N(c2ccc(OC)cc2)C(=O)/C1=C\c1cccs1
i,0.56,COc1ccc(C(=O)NC(Cc2ccccc2)c2ccc3c(c2)OCCCO3)cc1 (stereo unspecified)
-6*,0.48*,O=C(NC(=S)Nc1ccc(CN2CCCCC2)cc1)c1cccc(OCc2ccccc2)c1
i,0.63,CCOc1ccc(C(=O)N/N=C/c2ccccc2[N+](=O)[O-])cc1
i,-0.64,CCOC(=O)CNc1nc(Cl)nc(Nc2ccc(C)cc2)n1
i,0.87,COc1ccc(C(=O)NCCn2cc(SCC(=O)Nc3nnc(C)s3)c3ccccc32)cc1
i,1.7,C/C(=N\NC(=O)c1ccc(O)cc1)c1cccc(NC(=O)c2ccccc2C)c1
i,-2.3,O=C1C2C3CCC(C3NCc3ccccc3)C2C(=O)N1Cc1ccccc1 (stereo unspecified)
i,0.14,Nc1ccc(C(=O)NCC2(c3ccccc3)CCCC2)cc1
i,-0.56,OC(c1ccc(Cl)cc1)C(O)c1nc2ccccc2[nH]1 (stereo unspecified)
i,1.5,Cc1ccc2c(c1)[nH]c1c(=O)n(CCN3CCCCC3)cnc12
i,0.06,S=C(NCc1ccco1)Nc1ccc2c(c1)OCCO2
i,0.11,CC(=O)NCC1CCCN(c2nc3nonc3nc2N(C)Cc2ccccc2)C1 (stereo unspecified)
i,0.01,CNc1nc(-c2ccccc2)cc(C(F)(F)F)c1C#N
i,-0.63,CCOC(=O)/C=C/C(=O)Nc1ccc(S(=O)(=O)Nc2nccs2)cc1
i,-0.06,N#CC(C#N)=C(N)Nc1cccc(Cl)c1
-8.9*,-0.28*,COc1cccc(-c2nc(-c3ccc4c(c3)-c3ccccc3S4(=O)=O)c(-c3ccccc3)[nH]2)c1OC
i,0.71,CCOC(=O)C1CCN(S(=O)(=O)c2ccc(-c3ccc(=O)[nH]n3)o2)CC1
i,18,CCCCN(CCCC)c1nc2ccccc2nc1C(C#N)C(=O)NCCCOC (stereo unspecified)
i,1.6,CC(C)CC(=O)OCc1cn(-c2ccccc2)nn1
i,0.64,Cc1oc(-c2ccc(-c3ccccc3)cc2)nc1CN(C)C1CCOC1 (stereo unspecified)
i,-0.54,COCCNC(=O)Cc1c(C)c2c(cc(C)c3c(C)coc32)oc1=O
i,0.25,O=C(/C=C/c1ccccc1)NNC(=O)C1CC1
i,0.74,O=c1oc2cc(OCc3ccc([N+](=O)[O-])cc3)ccc2c2c1CCCC2
i,1.8,CCOc1ccc(NC(=O)CC2C(=O)N(C)C(=S)N2CCCc2ccccc2)cc1 (stereo unspecified)
i,1.4,N#Cc1c(-c2ccc(Br)cc2)cc(-c2cccnc2)nc1N
i,0.2,CN(c1ccccc1)c1nc(N)c([N+](=O)[O-])c(NCc2ccccc2)n1
i,-0.04,CCCCNC(=O)c1onc(CSc2cccc3ccccc23)c1C(=O)O
i,-0.16,Nc1c(S(=O)(=O)c2cccs2)c2nc3ccccc3nc2n1/N=C/c1cccc(O)c1
i,0.63,CCc1c(C)nc(SC(C(=O)O)c2ccccc2)c(C#N)c1C (stereo unspecified)
i,-0.09,COc1cc(C(=O)OCn2nnc3ccccc3c2=O)cc(OC)c1OC
i,5.3,S=C(Nc1ccc(Cc2ccncc2)cc1)Nc1cccc(Cl)c1
-6.4*,-0.87*,N#Cc1nc(COc2ccccc2)oc1N1CCN(Cc2ccccc2)CC1
i,11,Cc1ccc(S(=O)(=O)/N=C2/NC(=O)/C(=C\c3cc(Br)cc(Br)c3O)S2)cc1
i,-0.04,COc1ccc(-c2noc3c2-c2nc(C4CCCCC4)sc2CC3)cc1
i,-0.19,Cc1ccc(CN2CCC(Oc3ccc(C(=O)NCc4ccccn4)cc3)CC2)o1
i,1.8,Cc1c(NC(=O)CSc2nnc(COc3ccccc3)n2-c2ccccc2)c(=O)n(-c2ccccc2)n1C
i,0.78,COc1cc(OC)c(C2=NOC(C(=O)Nc3c(C)n(C)n(-c4ccccc4)c3=O)C2)cc1Cl (stereo unspecified)
i,-0.23,COc1cc(NC(=O)C2CCCCC2)c(OC)cc1NC(=O)CN1CCCCC1
i,0.13,Cc1ccc(OCc2nnc(SCC(=O)Nc3ccc4c(c3)OCCO4)n2Cc2ccco2)cc1
i,-2.1,CN(CCc1ccccc1)C(=O)c1cc(COc2ccc(F)cc2Cl)on1
i,1.6,CCn1c2ccccc2c2cc(NS(=O)(=O)c3ccc(C)cc3)ccc21
i,-0.92,COCCNC(=O)c1ccc(C2SCC(=O)N2CCc2ccccc2)cc1 (stereo unspecified)
i,0.07,CN(CC(=O)Nc1cccc(F)c1)C(=O)Cn1c(=O)cnc2ccccc21

Continuation:
KCNQ2 inh,KCNQ2 inh baseline,Structure
i,-0.77,O=C(Nc1ccc(CN2CCOCC2)cc1)c1ccc(-c2cccc(Cl)c2)o1
i,0.97,CCCCCC(=O)NCC(C)NC(=O)CCCCC (stereo unspecified)
i,1.1,COc1ccc(CC(=O)NCc2n[nH]c(=S)n2-c2cccc(Cl)c2)cc1
i,-1.2,COc1ccc(-c2ccc(SCC(=O)Nc3nnc(C)s3)nn2)cc1
i,-0.29,COc1ccc(S(=O)(=O)N2CCC(C(=O)N3CCN(C)CC3)CC2)cc1Cl
i,-0.95,Cc1c(NC(=O)Nc2ccc3c(c2)OCO3)cccc1[N+](=O)[O-]
i,-0.02,O=C(Nc1ccc(N2CCCC2)cc1)c1cccc(Cl)c1Cl
i,-0.25,O=C(Nc1cc(SCC(O)CO)cc([N+](=O)[O-])c1)c1ccc(-n2cnnn2)cc1 (stereo unspecified)
i,2.3,CC1(C)Cc2c(sc3c2c(=N)n(Cc2ccco2)c(=O)n3CC(=O)Nc2ccc(Cl)cc2)CO1
i,-0.97,O=C(c1cccs1)N1CCCC1

Gathered by group, the compounds so far with a cyano group.
KCNQ2 inh,KCNQ2 inh baseline,Structure
i,0.01,CNc1nc(-c2ccccc2)cc(C(F)(F)F)c1C#N
i,-0.06,N#CC(C#N)=C(N)Nc1cccc(Cl)c1
i,18,CCCCN(CCCC)c1nc2ccccc2nc1C(C#N)C(=O)NCCCOC (stereo unspecified)
i,1.4,N#Cc1c(-c2ccc(Br)cc2)cc(-c2cccnc2)nc1N
i,0.63,CCc1c(C)nc(SC(C(=O)O)c2ccccc2)c(C#N)c1C (stereo unspecified)
-6.4*,-0.87*,N#Cc1nc(COc2ccccc2)oc1N1CCN(Cc2ccccc2)CC1

(further entries)
KCNQ2 inh,KCNQ2 inh baseline,Structure
i,-0.18,CC(C)(C)C(=O)Nc1c(Br)c(C2CC2)nn1-c1ccccc1
i,-0.41,O=C(/C=C/c1c(F)cccc1Cl)Nc1nn[nH]n1
i,-0.7,O=S(=O)(CCSc1ccccn1)c1nc2ccccc2s1
i,-0.31,CCOC(=O)COc1nc(-c2ccco2)cc(-c2ccco2)c1C#N
i,-0.94,CNCCOCC(O)CSc1ccccc1 (stereo unspecified)
i,-2.9,Cc1c(C(=O)/C=C/N(C)C)nnn1-c1ccc(Cl)c(Cl)c1
i,1.6,Cc1ccc(C)c(CN2CCN(c3ncccn3)CC2)c1
i,2.5,COc1ccc2c(CC(=O)OCC(=O)c3ccccc3OC)coc2c1
i,0.56,CCOCCCNC(=O)C1CCCCN1S(=O)(=O)c1ccc(F)cc1 (stereo unspecified)
i,-0.04,Clc1ccc(CSc2nnc3c(n2)[nH]c2ccccc23)cc1
i,0.51,CCCC(c1c(C)n(C)n(-c2ccccc2)c1=O)c1c(C)n(C)n(-c2ccccc2)c1=O
i,-1.4,COc1ccc(C(=O)N2CCN(C(=O)C3COc4ccccc4O3)CC2)cc1OC (stereo unspecified)
i,-0.38,CC(C)CC1C(C#N)=C(N)Oc2n[nH]c(-c3cccs3)c21 (stereo unspecified)
i,-1.1,COc1cc(NC(=S)Nc2ncccc2C)cc(OC)c1OC
i,-0.35,Cc1ccc(-c2nnc(-c3cccnc3)o2)cc1
i,-1.1,CC1(c2ccccc2)CC(C)(C)N(C(=O)CSc2nnc(N)s2)c2ccccc21 (stereo unspecified)
i,2.6,O=C(O)C=C1C2CC3CC(C2)CC1C3

One compound at a time, as listed above:
Profile of `N#Cc1nc(COc2ccccc2)oc1N1CCN(Cc2ccccc2)CC1` = KCNQ2 inh = -6.4*; KCNQ2 inh baseline = -0.87*
Profile of `CC1(c2ccccc2)CC(C)(C)N(C(=O)CSc2nnc(N)s2)c2ccccc21` (stereo unspecified) = KCNQ2 inh = i; KCNQ2 inh baseline = -1.1
